FGF22 binding: binders of recombinant human FGF22 by thermal shift; SYPRO orange fluorescence; percent of sucrose octasulfate shift, DMSO zero; 1.5% of 340,000 active; calls only at 9.99 µM; Q9HCT0;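 active = melting point raised past a set limit in the mean and every replicate; three in four hits are not shown here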
Target sequence (Q9HCT0 whole entry, looked up): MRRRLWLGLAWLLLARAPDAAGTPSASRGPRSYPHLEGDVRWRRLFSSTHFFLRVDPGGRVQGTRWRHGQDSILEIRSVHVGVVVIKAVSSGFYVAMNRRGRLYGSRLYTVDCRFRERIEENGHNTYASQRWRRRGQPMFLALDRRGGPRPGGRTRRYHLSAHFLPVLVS
Ecoli growth: E. coli growth inhibition; AID 1053175; OD600 absorbance (concentration not given with the values); Escherichia coli growth, OD600, 23 h; stronger effect = lower value; 0.21% of 330,000 active;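 active = OD600 absorbance below the run mean of sample wells minus 3.6 SD, in any replicate, cut at about 0.56 in these data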;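 also: stock transfer was 300 nL into about 60 µL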
HNF4A DNA FP: change in binding of human HNF4 alpha to DNA | P41235 | HNF4a-FITC DNA binding, fluorescence polarization, 1 h | activity change, % at 10 µM | 0.3% of 360,000 active | AID 1224865; in the data active = activity change above about 30%, passing the limit was not always enough;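 also: controls were the assay level and a saturating level of protein; the project sought stronger binding though the title names inhibitors; some compounds called inactive have numbers as strong as hits; positive values seem to mean higher polarization but the record does not say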
Beta2AR agonist: agonists of human beta-2 adrenergic receptor inducing internalization; response, % (concentration not given with the values); 0.43% of 340,000 active; Am2.2-beta2AR cells, FAP receptor internalization, flow cytometry; reference of the scale not given here; P07550;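 active = response above a set limit, near 3 SD of response in nonfluorescent compounds, cut at about 42% in these data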;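 also: stock transfer was 100 nL into about 11 µL; a reference agonist was the positive control; negative values mostly stem from fluorescent compounds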
Target sequence (P07550 whole entry, looked up): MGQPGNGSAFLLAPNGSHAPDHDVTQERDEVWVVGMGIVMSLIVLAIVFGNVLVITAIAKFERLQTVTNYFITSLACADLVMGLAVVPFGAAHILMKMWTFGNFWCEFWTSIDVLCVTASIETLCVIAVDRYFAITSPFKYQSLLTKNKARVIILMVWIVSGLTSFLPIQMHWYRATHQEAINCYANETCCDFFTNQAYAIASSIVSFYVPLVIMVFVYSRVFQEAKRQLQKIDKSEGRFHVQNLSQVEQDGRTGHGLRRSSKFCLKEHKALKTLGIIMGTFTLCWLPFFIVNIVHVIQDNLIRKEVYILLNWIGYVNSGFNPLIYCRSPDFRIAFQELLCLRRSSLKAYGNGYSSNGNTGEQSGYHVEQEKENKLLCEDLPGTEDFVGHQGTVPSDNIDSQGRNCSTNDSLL
UCH37 DUB inh: human UCH37 deubiquitinating enzyme inhibition; purified proteasome/UCH37, Ub-AMC cleavage fluorescence; 0.33% of 330,000 active; AID 588478; inhibition, % (no concentration beside the values);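 active = mean of two replicates above 20%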;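 also: 0% = compound-free wells with enzyme and 100% = wells lacking proteasome; stock transfer was 100 nL into about 20 µL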
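Assay system: Proteasome-bound UCH37. Buffer or medium: pH 7.4 Tris-HCl (50 mM) with ovalbumin, ATP-MgCl2, DTT. Incubation: 30 min preincubation with enzyme, 25 min cleavage at room temperature. Measured by: fluorescence, ex 355 nm, em 460 nm. Read-out basis: percent inhibition. Control set: wells without proteasome as full block, compound-free enzyme plus substrate as uninhibited.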
LANA-H2B inh: blocks KSHV LANA binding to histone H2A/H2B | Q9QR71 | cell-free LANA-H2A/H2B peptide, fluorescence polarization | inhibition, % (test concentration not listed) | 0.6% of 320,000 active; in the data active = inhibition mostly above about 10%, no sharp cut-off; inactive = mostly below about 6.7%;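 also: stock transfer was 7.5 nL into about 10 µL; 0% = median of vehicle wells and 100% = median of positive control wells; one replicate is shown; the record names a cut of 25% in any replicate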
ALR inh: blocks human ALR sulfhydryl oxidase activity | P55789 | purified ALR, DTT oxidation, H2O2 HRP-luminol luminescence | inhibition, % (test concentration not listed) | 3.8% of 290,000 active;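 active = mean and each replicate at 75% or more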;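 also: stock transfer was 7.5 nL into about 7.5 µL; 0% = neutral wells and 100% = wells with inactivated enzyme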
Target sequence (P55789 whole entry, looked up): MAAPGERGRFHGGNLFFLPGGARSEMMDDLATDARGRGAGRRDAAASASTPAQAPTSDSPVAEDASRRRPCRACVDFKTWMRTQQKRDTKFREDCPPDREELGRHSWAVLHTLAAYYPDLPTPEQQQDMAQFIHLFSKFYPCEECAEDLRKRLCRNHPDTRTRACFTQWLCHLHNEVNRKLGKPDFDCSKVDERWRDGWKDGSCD
* hit, by the source's call; i = inactive; / = no result given; & = joins results of further samples. The list is partial (hit frequency here may not be typical).

SMILES	FGF22 binding	Ecoli growth	HNF4A DNA FP	Beta2AR agonist	UCH37 DUB inh	LANA-H2B inh	ALR inh
Cn1c(C(O)c2ccc3c(c2)OCO3)nc2ccccc21 (centres undefined)	/	0.752	0.8	3.0	1.3	-2.5	/
N/C(Cc1cccs1)=N\OC(=O)COc1ccccc1	/	0.726	-2.0	-0.6	1.7	7.1	36.3
COc1ccc(C2C(C(=O)c3ccc(C)o3)=C(O)C(=O)N2CC2CCCO2)cc1OC (centres undefined)	i	0.718	2.2	1.5	7.6	-6.9	-7.0
Cc1ccc(C(=O)CCC(=O)Nc2cccc(C)c2)cc1	i	0.7	5.9	4.3	6.6	4.4	0.2
NS(=O)(=O)c1ccc(CNC(=O)c2cc(-c3cccnc3)nc3ccc(Br)cc23)cc1	i	0.667	4.7	-9.8	2.7	-16.8	-1.1
C=CCN1C(=O)CSC1=Nc1ccc(NC(C)=O)cc1	i	0.716	3.0	-2.9	0.3	2.8	-3.6
CCOC(=O)N1CCN(C2CCCN(C(=O)c3cccc(N(C)C)c3)C2)CC1 (centres undefined)	i	0.692	-1.1	-0.9	1.3	0.1	7.6
Cc1ccc(-n2cc(CNCCCn3cccn3)c(-c3cccc(C)c3)n2)cc1	i	0.707	1.9	25.1	1.2	-0.8	/
O=C1NC(=O)C2(CCCC2c2ccccc2)N1 (centres undefined)	i	0.676	3.0	-1.8	0.8	/	/
C[C@]1(C(=O)NCCN2CCOCC2)C=C[C@@H](Cc2ccccc2)N1C(=O)c1ccccc1	i	/	1.5	-3.4	13.7	1.9	0.9
COc1ccc(N2CCN(C(=O)C(=O)c3c(C)n(C)c4ccccc34)CC2)cc1	i	0.736	2.1	1.9	4.6	-7.1	69.8
O=C(O)c1ccc(NC2=C(n3nnc4ccccc43)C(=O)c3ccccc3C2=O)cc1	i	/	-1.8	4.8	/	-0.7	-73.8
Cc1[nH]c(=O)c(C#N)c(C)c1Cl	i	0.67	-2.3	6.3	-24.5	-4.6	-4.5
Cc1c(C(=O)N2CCC[C@H]2CO)oc2c(F)cccc12	i	0.666	7.3	-0.2	4.2	-0.2	/
c1ccc(-c2noc(-c3ccco3)n2)nc1	/	0.673	-2.4	3.5	5.0	6.8	-5.1
C/C(CC(=O)Nc1ccc(N(C)C)cc1)=N\NC(=O)c1ccc(C(C)(C)C)cc1	i	/	-0.8	-2.0	/	5.1	-1.4
OCCNCc1cc(Br)ccc1OCc1ccccc1	i	0.656	-2.2	2.4	8.1	-8.5	-0.8
CCOC(=O)C1=C2c3ccc4ccccc4c3CC(C)(C)N2C(=O)C1=O	i	0.669	-1.6	-2.7	5.6	-25.4	/
CCCCn1c(N)c(N(CCOC)C(=O)C2CC(=O)N(Cc3ccco3)C2)c(=O)[nH]c1=O (centres undefined)	i	0.679	5.3	-0.8	4.0	0.8	-1.2
COc1cccc(-c2cc(C(F)(F)F)nc(-n3cccn3)n2)c1	/	0.692	0.9	-27.7	-12.6	4.2	-1.8
COc1ccc(N(C)C(=S)Nc2ccc3nc(C)c(C)nc3c2)cc1	i	0.667	6.6	-10.1	7.8	-0.3	98.2*
CC(=O)Nc1nc(C)nc(-c2ccccc2OC(C)=O)n1	i	0.718	1.6	2.5	4.9	1.8	-13.8
COc1ccccc1C(=O)NNC(=O)c1ccc(NC(=O)CC(C)C)cc1	i	0.672	-4.5	-3.9	2.1	8.5	-0.9
N=c1ccn(Cc2ccc([N+](=O)[O-])cc2)cc1	i	0.639	-0.3	5.3	4.8	-4.4	-4.1
CC(C)CC(=O)Nc1c2c(nn1-c1cccc(Cl)c1)CS(=O)C2 (centres undefined)	i	0.681	-2.2	-3.8	3.7	7.7	-4.8

An excerpt of these results, field by field.
Cc1c(C(=O)N2CCC[C@H]2CO)oc2c(F)cccc12
  FGF22 binding: i | Ecoli growth: 0.666 | HNF4A DNA FP: 7.3 | Beta2AR agonist: -0.2 | UCH37 DUB inh: 4.2 | LANA-H2B inh: -0.2 | ALR inh: /
CCOC(=O)N1CCN(C2CCCN(C(=O)c3cccc(N(C)C)c3)C2)CC1 (centres undefined)
  FGF22 binding: i | Ecoli growth: 0.692 | HNF4A DNA FP: -1.1 | Beta2AR agonist: -0.9 | UCH37 DUB inh: 1.3 | LANA-H2B inh: 0.1 | ALR inh: 7.6

(further entries)
SMILES	FGF22 binding	Ecoli growth	HNF4A DNA FP	Beta2AR agonist	UCH37 DUB inh	LANA-H2B inh	ALR inh
CCn1c(=NC(=O)CCS(=O)(=O)c2ccccc2)sc2cccc(OC)c21	i	0.669	-3.4	11.0	-9.5	-0.1	-31.0
O=C(NCCn1cc(SCC(=O)N2CCOCC2)c2ccccc21)c1c(F)cccc1F	i	0.789	-1.0	-5.1	7.5	2.5	-2.5
CCC(C)[C@H]1CN=C(N)N1CCCc1cc(OC)c(OC)c(OC)c1 (some centres undefined)	i	/	-2.4	3.6	-1.0	0.9	-16.6
CN(C(=O)c1cccc(NC(=O)Cc2ccc(NC(=O)C3CCN(S(=O)(=O)c4cccc([N+](=O)[O-])c4)CC3)cc2)c1)C1CCCC1	i	0.675	3.9	4.3	0.7	/	/
COc1ccc(CCN=C(N)C(C)c2ccccc2)cc1OC (centres undefined)	i	0.722	3.2	6.9	2.6	-6.4	-1.2
CCOC(=O)C1=C(COC(=O)c2ccc([N+](=O)[O-])o2)NC(=O)NC1C (centres undefined)	i	0.656	1.7	3.4	21.4*	-1.4	11.8
COc1ccc(COC(=O)CN2C(=O)NC3(CC(C)CC(C)(C)C3)C2=O)cc1F (centres undefined)	i	0.653	4.2	-0.8	2.0	0.8	-2.9
CC(C)Nc1nc(-c2ccccc2)nnc1-c1ccccc1	i	0.67	4.6	2.7	4.2	4.6	-7.5
Cc1ccc(C(=O)OCCc2sc[n+](Cc3ccccc3)c2C)cc1	i	0.672	-1.9	-1.4	2.9	-4.3	-12.4
O=C1/C(=C/c2ccc(O)cc2)SC(=S)N1Cc1cccnc1	i	/	51.5*	-15.7	/	0.6	-35.6
COc1ccc(-n2c(SCC(=O)NCc3cccs3)nnc2-c2ccoc2C)cc1	/	0.664	3.2	-5.3	2.8	4.6	29.7
CCOC(=O)N1CCN(C(=O)CCn2c(=S)[nH]c3cc(OCC)c(OCC)cc3c2=O)CC1	/	0.597	/	/	2.7	-1.0	-1.2
CC(C)c1nc(=S)c2ccccc2[nH]1	/	0.668	-1.9	6.4	9.2	4.9	/
O=C(Nc1cccnc1)c1cc(-c2cccs2)on1	/	0.675	1.5	-10.1	3.2	91.8*	-6.1
CCOC(=O)C(CSCC(=O)c1ccc(Cl)cc1)NC(=O)OC(C)(C)C (centres undefined)	/	0.758	0.0	0.2	2.2	1.6	/
CCOC(=O)C1=NN(c2ccccc2)C2C(=O)N(c3ccccc3OC)C(=O)C12 (centres undefined)	i	0.682	-3.3	1.1	-29.0	-4.4	3.6
O=C(Nc1ccc2c(c1)C(=O)NC2=O)c1ccc2ncsc2c1	i	/	2.2	-15.0	/	-4.0	/
O=C(Nc1ccnn1C1CCN(C(=O)c2ccccc2C(F)(F)F)CC1)C1CC1	i	0.702	4.4	-2.4	0.4	7.1	-5.2
Cn1cc(S(=O)(=O)N2CCN(c3ccccc3)CC2)c(=O)n(C)c1=O	i	0.77	-3.2	-8.8	0.2	0.0	/
CSc1nc(-c2ccccc2)nc(NC(C)=O)c1C(C)=O	i	0.68	-1.2	-2.1	2.9	0.3	-6.8
COc1ccc(OC)c(CCNC(=O)CCCc2nnc3n(C)c(=O)c4sccc4n23)c1	i	0.644	1.3	-2.0	2.8	0.5	-37.5
O=C(NCCCn1ccnc1)c1cccnc1	/	0.707	2.0	9.1	-1.6	9.3	-0.3
CS(=O)(=O)C1=NSC2=NC(=O)/C(=C\c3ccc(OC(=O)c4ccco4)c(Br)c3)C(=N)N21	/	0.715	34.9*	4.2	18.6	-10.3	20.3
Cc1nnc(NCc2ccncc2)c2ccccc12	/	0.649	1.7	-1.1	-0.5	-3.6	/
O=C(NCC(c1cccs1)N1CCOCC1)c1cc([N+](=O)[O-])cc([N+](=O)[O-])c1 (centres undefined)	i	0.662	2.2	-7.5	0.1	5.1	-24.7
Continuation:
SMILES	FGF22 binding	Ecoli growth	HNF4A DNA FP	Beta2AR agonist	UCH37 DUB inh	LANA-H2B inh	ALR inh
CC(=O)c1c(N2CCN(CCO)CC2)nc(=S)n(-c2ccccc2)c1C	i	0.675	3.4	4.2	1.5	-1.3	1.8
O=C(CSc1nccc(=O)[nH]1)NC1CCCC1	i	0.721	5.0	5.1	2.2	-2.2	-6.8
O=C(COc1ccccc1F)OCC(=O)N1CCc2ccccc21	i	0.625	-11.6	0.7	3.1	/	/
O=C1c2cccc3cc([N+](=O)[O-])cc(c23)C(=O)N1/N=C/c1ccc(O)cc1O	i	/	-8.4	3.7	/	-1.8	-2.2
Cc1ccc(-n2c(N)cc(=O)nc2SCC(=O)N2CCN(c3ccccc3)CC2)cc1	i	0.677	1.8	1.7	0.3	5.9	97.5*
O=C(C1CCN(S(=O)(=O)c2cccc3nsnc23)CC1)N1CC=C(c2ccccc2)CC1	/	0.707	-1.5	21.8	1.2	-3.9	-3.8
CC(=O)O[C@@H]1[C@@H](O)[C@@H](O)[C@H](Oc2c(-c3ccc(O)cc3)oc3c(CC=C(C)C)c(O)cc(O)c3c2=O)O[C@H]1C	/	0.758	/	/	5.4	0.2	/
Cc1ccc(S(=O)(=O)N(CC(=O)N2CCOCC2)CC(=O)N2CCOCC2)cc1	/	0.715	-2.9	1.1	3.5	-0.3	-1.5
O=C(NCC1(N2CCCCC2)CCCCC1)c1cccc(S(=O)(=O)Nc2ccc(F)cc2)c1	i	0.685	1.9	9.2	3.2	23.2*	-1.1
COc1ccc(CCNC(=O)C2CCN(S(=O)(=O)c3ccc(C)cc3)CC2)cc1	i	0.632	-3.1	-1.1	4.2	0.6	-10.9
CCOc1ccc(C(=S)NC2CCCCC2)cc1OC	i	0.629	1.7	-1.5	2.9	5.1	56.7
Fc1ccccc1COc1ccc(/C=N/NC(=S)NCc2ccccc2)cc1	/	/	-3.5	-3.9	/	3.5	-8.0
Cc1cc(NS(=O)(=O)c2ccc(NC(=O)C(C(C)C)N3C(=O)c4ccccc4C3=O)cc2)nc(C)n1 (centres undefined)	/	0.674	3.5	-0.8	3.0	-0.2	-1.3
CCOC(=O)C1=C(C)Nc2ncnn2C1c1cc(Br)ccc1F (centres undefined)	/	0.689	-0.4	1.2	5.3	-6.4	5.9
COc1ccc(C(=O)Nc2ccc(NC(=O)C3CC3)cn2)cc1	i	0.644	3.8	5.3	0.5	0.9	/
O=S(=O)(Nc1nc2c(s1)CCCC2)c1ccc(F)cc1	i	0.732	-6.5	-3.6	6.4	-3.7	8.6
Cn1c(S(=O)(=O)Cc2ccc(Cl)cc2)nc2ccccc21	i	0.693	-2.1	-2.9	3.9	1.7	-2.8
COc1c2occc2c(OC)c2c(=O)cc(C)oc12	i	0.668	2.6	-8.5	1.6	5.2&-0.4	4.8
COc1ccc(CCNCC(=O)N2C(C)CCCC2C)cc1OC (centres undefined)	i	0.669	-1.6	-3.1	2.6	-2.6	2.5
C[C@H](CO)N1C[C@H](C)[C@@H](CN(C)Cc2ccncc2)Oc2c(NS(=O)(=O)c3cn(C)cn3)cccc2C1=O	i	/	3.9	-1.2	6.2	5.0	-0.3
O=C(COC(=O)Cc1cccc(C(F)(F)F)c1)Nc1ccc2[nH]c(=O)[nH]c2c1	i	0.679	-3.3	-7.6	-2.2	-11.7	-14.8
CN1CCCC1=Nc1c2c(nc3ccccc13)N(C)CC2	i	0.661	-3.1	1.6	-11.2	-7.4	0.1
CCCCN(CC(=O)NC1CCCC1)C(=O)C(=O)Nc1ccc2c(c1)OCCO2	i	0.678	-2.6	-5.9	2.9	-5.0	0.3
CCOC(=O)Cc1cc(=O)[nH]c(Nc2nc3ccccc3o2)n1	/	0.663	0.6	-10.6	7.3	-0.5	-1.0
COc1cc(C)ccc1OCCCOc1c(Cl)cccc1Cl	i	0.716	-1.1	1.7	2.5	0.1	12.8
CN(CC(=O)Nc1ccc(F)cc1)C(=O)COC(=O)/C=C/c1cccs1	i	0.653	2.8	1.5	3.9	-7.7	/
